# HPGD block – inhibitors of human 15-hydroxyprostaglandin dehydrogenase (HPGD); 150,000 tested, 4.3% active; purified HPGD, NADH fluorescence kinetic, PGE2 substrate; P15428; Potency, µM, for the others: at the top dose activity change, negative = inhibition, hits mostly inhibitors; active = well fitted inhibition curve with a large enough effect (not every such curve was filed as active); inconclusive = small, poorly fitted or top-dose-only effect, or another doubt; inactive = no such curve, though single readings can be large or run the other way;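 note: top concentration of the series not given in the record; plate controls included wells without enzyme; inactives centre near -10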
# Target sequence (P15428 whole entry, looked up): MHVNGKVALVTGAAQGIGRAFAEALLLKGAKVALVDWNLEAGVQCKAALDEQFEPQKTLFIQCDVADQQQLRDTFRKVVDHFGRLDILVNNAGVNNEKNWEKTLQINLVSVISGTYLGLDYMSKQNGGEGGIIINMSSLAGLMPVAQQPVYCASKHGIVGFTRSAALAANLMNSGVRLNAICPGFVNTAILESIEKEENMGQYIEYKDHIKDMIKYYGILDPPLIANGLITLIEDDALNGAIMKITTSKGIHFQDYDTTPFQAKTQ
#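 20 nM HPGD preincubated 15 min at room temperature with compound in 50 mM Tris-HCl pH 8, 0.01% Tween 20. Started with 1 mM NAD+ and 30 uM prostaglandin E2; NADH fluorescence (360/450 nm) read 5 times over 30-s intervals, last minus first.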
# * marks the source's active call; other numbers are inactive results; ? = inconclusive; & = joins results of further samples. % is set by controls: 0 for no effect and ±100 for the full control effect; potency is the fitted concentration of half-maximal effect.
HPGD block	Structure
-15.6%	CCOC(=O)c1ccc(NC(=O)CSc2nc3cccnc3n2C)cc1
14.1µM*	CCOc1ccc(C(C)=O)cc1CSc1nnc(-c2ccoc2C)n1N
-8.4%	CCC1(C)Cc2c(sc(NC(=O)CCC(=O)O)c2C#N)CO1 (centres undefined)
-22.7%	O=C1/C(=C\Nc2ccc(OC(F)(F)F)cc2)CCN1c1ncccn1
-14.5%	CCSc1nnc2n(-c3ccc(OC)cc3)c(=O)c3c4c(sc3n12)CCCC4
-16.1%&-18.9%&-16.7%	O=C(/C=C/c1ccc(O)cc1)c1ccc(O)cc1O
-17.1%	O=C(O)c1cccc(CN2C(=O)CSC2=O)c1
-13.0%	CCOC(=O)C1=NN(C(=O)Nc2cccc(C(F)(F)F)c2)C2C(=O)N(c3cccc(C(F)(F)F)c3)C(=O)C12 (centres undefined)
?	CC(C)CN(C(=O)c1ccc(=O)n(C)n1)c1nc2ccccc2s1
-15.3%	COc1ccc(-c2cn(-c3ccc(C)cc3)c(=O)n2CC(=O)Nc2ccc(OC)c(OC)c2)cc1
-7.9%	CCOC(=O)C1CCCN(S(=O)(=O)c2cc(Br)cc3c2N(C(=O)C2CC2)CC3)C1 (centres undefined)
-16.5%	Cc1cccc2cc(CN(CC3CCCO3)C(=O)c3ccncc3)c(=O)[nH]c12 (centres undefined)
-1.8%	COc1cc2c(c(O)c1OC)C(=O)C(OC)CCC2 (centres undefined)
1.7%	CC(C)C(C)C
28.2µM*	Cc1c(C(=O)NCC2CCCO2)sc2nc(-c3ccccc3)cn12 (centres undefined)
-10.5%	CCCCc1c(O)nc2n(c1=O)CCS2
-6.9%	O=C1OC(=O)c2c(Br)c(Br)c(Br)c(Br)c21
-7.9%	CCOC(=O)C1CCCN(c2c(NCCN(C)Cc3ccccc3)c(=O)c2=O)C1 (centres undefined)
?	COCCCNC(=O)c1cc2c(=O)n3cccc(C)c3nc2n(C(C)C)c1=N
-6.9%	COC(=O)c1ccc(Sc2nnnn2-c2ccccc2)c([N+](=O)[O-])c1
?	O=C(OC1CCOC1=O)c1ccc(-c2nc3ccccc3s2)s1 (centres undefined)
-1.4%	CCC(C)NC(=O)C1c2ccccc2C(=O)N1Cc1ccc(OC)cc1OC (centres undefined)
-25.8%	COc1nc(Nc2ccc(C(C)=O)cc2)nc(OC)n1
-15.3%	Brc1ccc(-c2cnc3n2CCCC3)cc1
-6.2%	CCc1cccc(CC)c1NC(=O)CN1CC(C)SC1=NC1CCCCC1 (centres undefined)
-20.7%	COc1ccc(/C=N/NC(=O)c2nc(-c3ccccc3)n(-c3ccccc3)n2)c(O)c1
-11.9%	COCCCNC(=O)Cn1cc2c(n1)CCCCC2
-12.8%	CCC(=O)N1CCc2cc(S(=O)(=O)N3CCN(c4ccccn4)CC3)ccc21
-8.4%	COc1cc(CNCCN2CCOCC2)ccc1OCc1cccc(Cl)c1
-0.5%	CCOC(=O)C1(C(F)(F)F)N=C(C(F)(F)F)Nc2cc(C)c(C)cc21 (centres undefined)
-20.7%	C/C(N)=C(/C#N)C(=O)CSc1nnc(NC(C)C)s1
-9.6%	COC(=O)c1ccc(C2c3c(n[nH]c3C)C(=O)N2c2ccc(C)cc2)cc1 (centres undefined)
-17.0%	Cc1c(C(=O)O)sc2nc(C)n(C)c(=O)c12
-10.6%	Fc1ccc2c(c1)C(c1cccnc1)=NNC(c1cccs1)=N2
-13.5%	Cc1nc2cc(Cl)ccc2n1CCO
4.4%	CN(C)C(CNC(=O)Nc1cccc(Cl)c1)c1cccnc1 (centres undefined)
-17.0%	COC(=O)C1=C(C)Nc2c(c(=O)n(C)c(=O)n2C)C1c1cccnc1 (centres undefined)
-3.9%	COc1ccccc1/C=C(/C(=O)OCC(=O)Nc1ccc(N(C)C)cc1)c1ccccc1
-6.8%	NCCCC[C@@H]1NC(=O)[C@H](CCC(=O)O)NC(=O)c2cc([N+](=O)[O-])cc(I)c2SC[C@@H](C(=O)NCC(N)=O)NC1=O
-2.4%	CCOC(=O)c1c(C)n(C)c2ccc(OCC(O)CN3CCCCCC3)cc12 (centres undefined)
-13.8%	Cc1ccc(-c2noc(CCC(=O)NCC3CCN(Cc4cccc(C)c4)CC3)n2)cc1
-29.3%	CCn1c(SCC(=O)N2CCCC(C)C2)nnc1-c1ccc(S(=O)(=O)N2CCN(C)CC2)cc1 (centres undefined)
-22.2%	COc1cc(NC(=O)COC(=O)Cc2ccc(-c3ccccc3)cc2)cc(OC)c1
?	CCc1cc(SC#N)cc(CC)c1NC(=O)CCl
-18.6%	COc1ccc(OC)c(NC(=O)C2=C(C)Nc3ncnn3C2c2cccs2)c1 (centres undefined)
-2.9%	COc1ccccc1NC(=O)Cc1noc(CSc2cccc[n+]2[O-])n1
-6.7%	COc1cccc(C2CC(C(F)(F)F)n3nc(C(=O)NCc4cccnc4)cc3N2)c1 (centres undefined)
?	O=C(OCC#CCSc1nnc(-c2cccc3ccccc23)o1)c1ccco1
-23.3%	Cc1cc(C(=O)Cn2cc(C(F)(F)F)ccc2=O)c(C)n1-c1ccccc1
-7.8%	Cc1ccc(S(=O)(=O)NC(=O)Nn2c(C)nnc2C)cc1
?	COc1cc2c(cc1OC)C(c1cc3ccccc3oc1=O)=NC(C)(C)C2
-12.6%	CCN(CC)S(=O)(=O)c1cccc(NC(=O)COC(=O)/C=C/c2ccco2)c1
-24.5%	CN(C)c1ccnc2sc(C(N)=O)c(N)c12
-18.1%	CCOC(=O)N/N=C/c1cc(OC)c(O)c(OC)c1
?	COCCCn1c(SCC(=O)Nc2ccc(NC(=O)c3ccco3)c(OC)c2)nc2ccccc2c1=O
-12.6%	CCC(=O)Nc1c(C(=O)Nc2cccc(OC)c2)oc2ccccc12

# Quoted from the listing.
# Value for Fc1ccc2c(c1)C(c1cccnc1)=NNC(c1cccs1)=N2 in HPGD block: -10.6%
# Value for CCOC(=O)C1CCCN(c2c(NCCN(C)Cc3ccccc3)c(=O)c2=O)C1 (centres undefined) in HPGD block: -7.9%
# Value for COC(=O)C1=C(C)Nc2c(c(=O)n(C)c(=O)n2C)C1c1cccnc1 (centres undefined) in HPGD block: -17.0%
# Value for CCc1cccc(CC)c1NC(=O)CN1CC(C)SC1=NC1CCCCC1 (centres undefined) in HPGD block: -6.2%
# Value for COc1ccc(OC)c(NC(=O)C2=C(C)Nc3ncnn3C2c2cccs2)c1 (centres undefined) in HPGD block: -18.6%

# Further results
HPGD block	Structure
-3.5%	COC(=O)c1cc(=O)cc(C(=O)OC)o1
-11.7%	CCC(=O)Nc1ccc(C(=O)Nc2cccnc2)cc1
-13.1%	CCOc1ccc(C2CC(c3ccccc3C)n3ncnc3N2)cc1 (centres undefined)
?	CCN(C(=O)COC(=O)c1cc(-c2cccc3ccccc23)nc2ccccc12)C1CCS(=O)(=O)C1 (centres undefined)
-9.3%	Cc1nccn1C[C@@H]1CCc2c(c3ccccc3n2C)C1=O
-14.1%	COc1ccccc1C(=O)Nc1nc2nc(-c3ccccc3)cc(=O)n2[nH]1
4.7%	COc1nnc(-c2ccc(N3CCOCC3)c(NC(=O)c3ccccc3)c2)c2ccccc12
0.562µM*	Cc1oc(-c2cccc(Cl)c2)nc1CSc1nc2c(c(=O)[nH]1)CCC2
?	O=C(Nc1ccc2nc(SCc3ccc(Cl)cc3)sc2c1)c1ccccc1C(=O)N1CCOCC1
1.9%	O=C(c1ccco1)N1CCN(/C(=N/S(=O)(=O)c2cccs2)c2ccccc2Cl)CC1
?	Cc1nc(SCC(=O)N2CCN(c3ccccc3)CC2)c2oc3ccccc3c2n1
-18.5%	Cc1ccc(Nc2nc3ccccc3s2)c(C)c1
-20.6%	COc1cccc(N2CC(C(=O)Nc3nnc(SCc4cccnc4)s3)CC2=O)c1 (centres undefined)
-1.6%	COC(=O)CN(c1ccccc1F)S(=O)(=O)c1ccccc1
28.2µM*	CCSc1nnc(NC(=O)c2cc(C)nc3ccccc23)s1
-3.7%	CN(C)c1ccnc(-c2ccccc2C(F)(F)F)n1
-0.5%	Nc1ncn([C@H]2O[C@@H](CO)[C@@H](O)[C@@H]2O)c(=O)n1
2.1%	O=C1CCC(=O)N1CCCCCc1nc(-c2ccccc2)no1
-8.9%	O=C(CCC1CCCC1)N1CCN(C(=O)c2cccnc2)CC1
-3.7%	CCn1c(SCC(=O)N2CCCc3ccccc32)nc2c1c(=O)n(C)c(=O)n2C
28.2µM*	O=C(CSc1nnc(SCc2ccccc2)s1)N/N=C/C=C/c1ccco1
-4.2%	COc1cccc(OC)c1OCCNC(C)(C)C
-11.6%	Cc1cc(C)c(S(=O)(=O)c2ccccc2)c(OC(=O)c2c(Cl)cc(Cl)cc2Cl)n1
-6.4%	CCOC(=O)N1CCC(N2C(=O)c3cc(C(=O)NC4CCCCC4)ccc3C2O)CC1 (centres undefined)
-3.4%	CCN(CC)C(=O)C1CCCN(Cc2ccc(OC)c(C)c2C)C1 (centres undefined)
-23.4%	CN(Cc1nc(-c2ccncc2)no1)S(=O)(=O)c1ccc(Br)cc1
-26.8%	Cc1ccc(-n2ncc3c(=O)n(CC(=O)NCC4CCCO4)cnc32)cc1 (centres undefined)
7.94µM*	Cc1ccc(-n2c(N)c(C(N)=O)sc2=S)cc1
-10.8%	Cc1ccc(S(=O)(=O)Nc2cc(C(F)(F)F)ccc2N2CCOCC2)cc1
-15.3%	COc1ccc(CNCCC(c2ccccc2)c2ccc3c(c2)OCO3)cc1 (centres undefined)
0.8%	CCCCOCCCNC(=O)N[C@@H](CC(C)C)C(=O)O
-6.5%	CCOC(=O)CC(=O)CSc1nc(C)cc(C)c1C#N
-6.1%	O=C(Nc1ccc2nc(-c3ccc(Br)o3)[nH]c2c1)c1cccs1
-20.3%	COc1cccc(CN2CCCN(S(=O)(=O)c3ccc(Br)cc3)CC2)c1
-3.0%	CCn1c(CSc2nc3ccccc3s2)nnc1SCC(=O)NCC(=O)OC
-6.8%	COc1ccc(/C=C/C(=O)OCC(=O)Nc2cccc(C(C)=O)c2)cc1
12.6µM*	O=[N+]([O-])c1ccccc1-c1cc(-c2ccccc2O)n[nH]1
-11.3%	O=c1cc(-c2ccccc2)nc2nc(COc3ccccc3)[nH]n12
-5.5%	O=C(NCc1ccccc1)c1n[nH]nc1-c1ccccc1O
-19.3%	COC(=O)C1=C(C)NC(C)=C(C(=O)OC)C1C(=O)OC1CCCCC1=O (centres undefined)
-5.6%	CCCC12CN3CC(C)(CN(C1)C3c1ccc3c(c1)OCO3)C2=O (centres undefined)
-3.1%	CCCn1c(C)nc2c(N3CCC(N4CCN(C)CC4)CC3)nc(C)nc21
?	NC(=S)c1ccc[n+]([C@@H]2O[C@@H](COP(=O)([O-])OP(=O)(O)OC[C@H]3O[C@@H](n4cnc5c(N)ncnc54)[C@H](OP(=O)(O)O)[C@H]3O)C(O)C2O)c1 (some centres undefined)
10µM*	COC1=C(Nc2ccccc2)C(=O)c2ccccc2C1=O
-18.4%	Cc1cccc(CC2CC(=O)N(C3CCCCC3)C2=O)c1 (centres undefined)
-9.7%	C/C(CC1CC(COCCC(C)C)OC1=O)=N\NC(N)=S (centres undefined)
-5.2%	O=C(Nc1nc(-c2ccc(-c3ccccc3)cc2)cs1)c1cnccn1
-5.1%	COc1ccc(S(=O)(=O)Nc2ccc(S(=O)(=O)N3CCCC3)cc2)cc1
-9.1%	CC1CN(C(=O)C(C)N2C(=O)c3ccccc3C2=O)CC(C)O1 (centres undefined)
-10.8%	[O-][N+](CCO)(CCO)c1ncnc2nc[nH]c12
-12.9%	COC(=O)c1ccccc1C[C@]1(C(=O)OC)C=C[C@H](C)[C@@H](c2ccccc2)N1C(=O)C(F)(F)F
-23.4%	CCO/C(C)=N/n1c2nc3ccccc3nc2c2c(=O)n(C3CCCC3)c(C)nc21
-20.7%	CC(=O)/C=C/n1c(=S)oc2ccccc21
-2.1%	O=C(CN1CCN(S(=O)(=O)c2ccc(Cl)cc2)CC1)Nc1ccc(N2CCOCC2)cc1
?	CCOc1cc2c(C#N)c(N3CCOCC3)nc(N)c2c(N)n1
-7.2%	CNc1nc(N/N=C/c2ccc([N+](=O)[O-])cc2)nc(Nc2ccccc2)n1

# Among those listed so far, these contain a COOH group:
HPGD block	Structure
-8.4%	CCC1(C)Cc2c(sc(NC(=O)CCC(=O)O)c2C#N)CO1 (centres undefined)
-17.1%	O=C(O)c1cccc(CN2C(=O)CSC2=O)c1
-17.0%	Cc1c(C(=O)O)sc2nc(C)n(C)c(=O)c12
-6.8%	NCCCC[C@@H]1NC(=O)[C@H](CCC(=O)O)NC(=O)c2cc([N+](=O)[O-])cc(I)c2SC[C@@H](C(=O)NCC(N)=O)NC1=O
0.8%	CCCCOCCCNC(=O)N[C@@H](CC(C)C)C(=O)O

# (continued)
HPGD block	Structure
4.7%	COC1=CC(=O)C=C(OC)C1=O
-17.6%	c1cnn(-c2cc(N3CCOCC3)ncn2)c1
-4.3%	COC(=O)C1=C(C)N(CC2CC2)C(=O)N[C@H]1CCc1ccccc1
?	COc1cccc(S(=O)(=O)NCc2ccc(C(=O)Nc3ccc(Cl)c(Cl)c3)cc2)c1
-20.8%	Clc1cncc(Cl)c1N/N=C/c1ccncc1
14.1µM*	CN(C)/C=C/C(=O)/C=C/c1cn(-c2ncc(C(F)(F)F)cc2Cl)c2ccccc12
-4.3%	O=C(Cc1c2ccccc2nc2ccccc12)c1ccccc1
-14.6%	O=C(NNC(=O)c1ccccc1Br)c1ccc(SCC2CCCO2)c([N+](=O)[O-])c1 (centres undefined)
14.1µM*	CC(=O)c1cc(CN2C(=O)c3ccccc3C2=O)cs1
-20.9%	COc1ccc(-n2c(CNc3ccc(C)cc3)nnc2SCc2ccccc2)cc1
-12.7%	Cc1cc(O)c(C(=O)c2ccccc2C(=O)O)cc1C
-10.3%	CCSc1nnc2nc(C)cc(C)n12
4.47µM*	Cc1ccc(O)c(-c2cc(-c3ccccc3[N+](=O)[O-])[nH]n2)c1
-18.4%	COc1cc(OC)c(C2=NOC(C(=O)Nc3c(C)nn(CC(=O)N4CCCC4)c3C)C2)cc1Cl (centres undefined)
-7.8%	CCOc1ccc(/C=C/C(=O)Nc2cccc(C(C)=O)c2)cc1

# An excerpt; count on the stated rates, not on these rows.
